# Beta2AR agonist: activates human beta-2 adrenergic receptor causing internalization | Am2.2-beta2AR cells, FAP receptor internalization, flow cytometry; reference of the scale not given here | response, % (concentration not given with the values) | 340,000 tested, 0.43% active | AID 504454;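 active = response above a set limit, near 3 SD of response in nonfluorescent compounds, cut at about 42% in these data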;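 note: stock transfer was 100 nL into about 11 µL; a reference agonist was the positive control; negative values mostly stem from fluorescent compounds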
# LANA-H2B inh: blocks KSHV LANA binding to histone H2A/H2B; Q9QR71; cell-free LANA-H2A/H2B peptide, fluorescence polarization; inhibition, % (no concentration beside the values); 320,000 tested, 0.6% active; in the data active = inhibition mostly above about 10%, no sharp cut-off; inactive = mostly below about 6.7%;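 note: stock transfer was 7.5 nL into about 10 µL; 0% = median of vehicle wells and 100% = median of positive control wells; one replicate is shown; the record names a cut of 25% in any replicate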
# HNF4A DNA FP: change in binding of human HNF4 alpha to DNA | 360,000 tested, 0.3% active | AID 1224865 | HNF4a-FITC DNA binding, fluorescence polarization, 1 h | P41235 | activity change, % at 10 µM; in the data active = activity change above about 30%, passing the limit was not always enough;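 note: controls were the assay level and a saturating level of protein; the project sought stronger binding though the title names inhibitors; some compounds called inactive have numbers as strong as hits; positive values seem to mean higher polarization but the record does not say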
# Target sequence (P41235 whole entry, looked up): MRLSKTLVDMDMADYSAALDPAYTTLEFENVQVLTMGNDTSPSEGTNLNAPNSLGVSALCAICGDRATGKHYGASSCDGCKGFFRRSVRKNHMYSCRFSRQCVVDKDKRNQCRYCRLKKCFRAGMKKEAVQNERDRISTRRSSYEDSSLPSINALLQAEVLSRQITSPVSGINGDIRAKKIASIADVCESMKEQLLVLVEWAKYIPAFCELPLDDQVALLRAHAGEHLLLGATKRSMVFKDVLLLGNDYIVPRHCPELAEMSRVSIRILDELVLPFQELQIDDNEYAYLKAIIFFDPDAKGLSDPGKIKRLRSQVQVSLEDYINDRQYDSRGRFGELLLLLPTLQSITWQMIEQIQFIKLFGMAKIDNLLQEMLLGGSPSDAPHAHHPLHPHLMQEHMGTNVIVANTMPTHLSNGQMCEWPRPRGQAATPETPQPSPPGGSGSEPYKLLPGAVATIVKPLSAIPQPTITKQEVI
# Ecoli growth: inhibitors of Escherichia coli growth; AID 1053175; OD600, 23 h; hits give low values; 330,000 tested, 0.21% active; OD600 absorbance (no concentration beside the values);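 active = OD600 absorbance below the run mean of sample wells minus 3.6 SD, in any replicate, cut at about 0.56 in these data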;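 note: stock transfer was 300 nL into about 60 µL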
# FGF22 binding: FGF22 (human) thermal shift binding; 340,000 tested, 1.5% active; calls only at 9.99 µM; recombinant FGF22 thermal shift, SYPRO orange fluorescence; percent of sucrose octasulfate shift, DMSO zero; AID 651658; Q9HCT0;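 active = melting point raised past a set limit in the mean and every replicate; three in four hits are not shown here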
# Target sequence (Q9HCT0 whole entry, looked up): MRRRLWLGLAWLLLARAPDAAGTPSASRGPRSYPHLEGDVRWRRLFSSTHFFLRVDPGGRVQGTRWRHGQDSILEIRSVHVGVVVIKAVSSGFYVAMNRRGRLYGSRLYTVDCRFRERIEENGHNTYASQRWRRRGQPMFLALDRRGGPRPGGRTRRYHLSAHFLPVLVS
# ALR inh: blocks human ALR sulfhydryl oxidase activity | P55789 | purified ALR, DTT oxidation, H2O2 HRP-luminol luminescence | inhibition, % (no concentration beside the values) | 290,000 tested, 3.8% active;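 active = mean and each replicate at 75% or more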;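 note: stock transfer was 7.5 nL into about 7.5 µL; 0% = neutral wells and 100% = wells with inactivated enzyme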
# Target sequence (P55789 whole entry, looked up): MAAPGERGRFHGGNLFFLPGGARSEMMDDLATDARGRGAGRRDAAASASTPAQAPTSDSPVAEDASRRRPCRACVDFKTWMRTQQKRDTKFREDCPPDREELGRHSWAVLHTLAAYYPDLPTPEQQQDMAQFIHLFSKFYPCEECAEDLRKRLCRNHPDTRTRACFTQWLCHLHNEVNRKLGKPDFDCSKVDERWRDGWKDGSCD
# UCH37 inh: human UCH37 deubiquitinating enzyme inhibition | Q9Y5K5 | purified proteasome/UCH37, Ub-AMC cleavage fluorescence | inhibition, % (no concentration beside the values) | 330,000 tested, 0.33% active;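 active = mean of two replicates above 20%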;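 note: 0% = compound-free wells with enzyme and 100% = wells lacking proteasome; stock transfer was 100 nL into about 20 µL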
#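 assay system = human UCH37 enzyme supplied as purified proteasome complex | amount = proteasome at 0.15 nM in the dispensed enzyme solution | schedule = 30 min compound-proteasome preincubation then 25 min substrate reaction, room temperature | measured by = fluorescence, ex 355 nm, em 460 nm | benchmarks = no-proteasome wells (full inhibition) and compound-free wells (no inhibition)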
# Numbers without * were called inactive; i = inactive; nt = not tested or not shown; + = active, no number. Not all compounds are listed; rates above refer to the full screens.
Beta2AR agonist	Ecoli growth	LANA-H2B inh	FGF22 binding	HNF4A DNA FP	UCH37 inh	ALR inh	structure
4	0.71	-0.7	i	-0.4	3.0	-13	Cc1ccc(NC(=O)C2C3CCCCC32)cc1[N+](=O)[O-] (centres undefined)
2	0.69	4.7	i	-0.3	0.9	2	CC(C)(C)NC(=O)Cn1c(Cl)nc2ccccc21
-1	0.68	-4.2	i	1.5	3.6	18	Cc1cccc(C(=O)NC2CCN(S(=O)(=O)c3ccc(F)cc3)CC2)c1
-3	0.72	-0.3	nt	1.8	1.8	-3	Cc1ccc(C)c(N2C(=O)CN=C2Nc2ccccc2Cl)c1
-16	0.71	8.3	nt	28	0.6	-27	COc1ccc(N2C(=O)c3ccc(NC(C)=O)cc3C2=O)cc1
13	0.75	0.8	nt	2.4	-0.6	-3	CC12C(=O)N(Cc3ccco3)C(=O)C1C1c3ccccc3C2c2ccccc21 (centres undefined)
-16	0.7	-3.3	i	1.0	3.2	0	COc1cc(NC(=O)c2cccs2)c(OC)cc1NC(=O)Cc1ccccc1
-16	0.73	nt	i	49*	-10	nt	COC(=O)C1C2CC3c4[nH]c5cc(OC)ccc5c4CCN3CC2CC(OC(=O)CC(C)=O)C1OC (centres undefined)
-4	0.68	-3.3	i	3.6	5.1	0	CCCCN(CC)C(=O)C1CCCN(S(=O)(=O)c2cccc3nsnc23)C1 (centres undefined)
-13	0.67	-1.1	nt	-1.0	4.2	-5	COc1cc(Br)cc2cc(C(=O)NCC3CCCO3)c(=O)oc12 (centres undefined)
-4	0.73	5.4	nt	1.5	6.1	nt	COc1cc(C(=O)Nc2cc(C(F)(F)F)ccc2N2CCOCC2)ccc1O
0	0.81	-0.9	nt	-2.4	-71	-7	Cc1ccccc1NC(=O)CSc1nc(N)c(C#N)c(-c2cccs2)c1C#N
-1	0.68	4.1	i	2.0	0.1	-7	O=C(Cn1nnc2ccccc21)OCC(=O)c1ccc(F)cc1
5	0.7	-4.4	i	-2.0	8.0	-22	Cc1ccc(C)c(NC(=S)/C(=C(\[O-])c2ccc(OC(F)F)cc2)[n+]2ccccc2)c1
-1	0.71	-3.8	nt	1.1	-0.7	6	O=C(Cc1cccs1)Nc1nc2ccccc2s1
-1	0.65	-5.2	i	-1.8	2.9	nt	CCOc1ccc2nc(SCC(=O)Nc3ccc4[nH]c(=O)[nH]c4c3)[nH]c2c1
-14	0.71	-1.8	i	-1.8	5.4	nt	Cc1sc2ncn(-c3ccccc3)c(=O)c2c1C
9	0.73	2.7	nt	-5.0	4.7	nt	COc1ccc(OC)c(Nc2nc(-c3cccc([N+](=O)[O-])c3)nc3ccccc23)c1
0	0.66	nt	i	0.5	2.0	nt	CCOc1ccc(/C=C(/C#N)c2nnc(N3CCOCC3)n2-c2ccccc2)cc1OC
-4	0.7	5.9	nt	-4.5	-0.6	-1	CCOC(=O)NC(Nc1cc(C)ccn1)(C(F)(F)F)C(F)(F)F
8	0.67	2.7	nt	-5.6	3.1	-21	COc1ccc(NC(=O)C2CCCCN2S(=O)(=O)c2ccc(F)cc2)c(OC)c1 (centres undefined)
1	0.72	1.0	nt	-2.5	2.0	2	CCOc1cc(C(=O)N2CCN=C2SC)cc(OCC)c1OCC
0	0.69	-1.0	i	0.8	0.3	-1	Cc1cc(C(F)F)nn1CC(=O)NC1CCCCCC1
-1	0.62	-2.1	i	1.2	3.3	-3	Cc1ccc(NC(=O)C2CCN(S(=O)(=O)c3cccs3)CC2)cc1
-3	0.72	-1.0	nt	-1.3	6.6	-1	CNC(=O)Cn1nc(C)c2ccccc2c1=O
-2	0.68	7.6	i	-1.6	1.1	0	Cc1cc(C(=O)Nc2cccc([N+](=O)[O-])c2C)cs1
-4	0.71	-2.6	+	-0.8	-0.7	-1	Cc1cccc(NC(=O)c2cccc(C(=O)Nc3cccc(C)c3)c2)c1
1	0.68	1.2	i	-0.6	1.9	-1	COc1ccc(CC(=O)OCC(=O)NC2CCCC(C)C2C)cc1OC (centres undefined)
-6	0.68	-6.5	i	-2.1	-2.7	-1	COc1ccc(CCNS(=O)(=O)c2ccc(Cl)cc2)cc1OC
-95	0.72	nt	i	22	-149	nt	CCOC(=O)/C(=C\c1ccc(N2CCC(c3ccccc3)=N2)cc1)C(C)=O
0	0.65	-8.5	i	-0.7	5.2	65	CC(C)(C)n1cnc2cc(NC(=O)c3ccccc3)ccc21
2	0.66	0.1	i	0.7	0.5	-5	CC(C)(C)Cc1nnc(NC(=O)c2ccc3c(c2)OCO3)s1
-2	0.68	nt	i	2.9	3.3	nt	Cc1cc(NS(=O)(=O)c2ccccc2)ccc1NS(=O)(=O)c1ccccc1
-2	nt	-2.2	i	-1.2	nt	1	Cc1ccc(/C=N/NC(=O)c2ccco2)cc1
6	0.68	5.7	i	1.3	0.7	nt	COc1cc(C(c2c(C)n(C)n(-c3ccccc3)c2=O)c2c(C)n(C)n(-c3ccccc3)c2=O)cc(Br)c1O
-16	0.69	-9.3	nt	2.5	-20	0	Cn1c(SCC(=O)NCc2ccccc2)ncc(C(=O)Nc2ccccc2)c1=O
-6	0.66	1.3	i	-0.3	1.3	-9	Cc1cc(N2C(=O)c3ccccc3C2=O)n(C)n1
nt	0.74	0.6	nt	nt	-2.2	-12	COc1cccc2cc(C(=O)NC3CC(C)(C)NC(C)(C)C3)c(=O)oc12
-3	0.64	-4.0	i	-1.1	3.9	0	Cn1c(=O)c2c(ncn2CC(=O)OCC(=O)NNC(=O)c2ccc(Cl)cc2)n(C)c1=O
-10	0.73	0.4	nt	1.8	-8.8	nt	C=C(Cl)COc1ccc2c(CCC)cc(=O)oc2c1
-6	0.72	-2.6	nt	-3.4	3.7	-9	CCCNC(=O)c1ccc2snnc2c1
0	0.67	-0.8	i	-3.9	2.2	-9	Cn1c(=O)c2ccccc2n(CC(=O)Nc2ccc3c(c2)OCCO3)c1=O
-1	0.7	-5.7	nt	1.7	3.0	59	CCN(CC)C(=O)CCCc1c[nH]c2ccccc12
-4	0.69	-8.3	nt	-0.5	8.3	100*	CCn1c(N)c(C(=O)NCCOC)sc1=S
2	0.57	-3.4	nt	-0.5	-6.6	74	COc1ccc(C(=O)NC(=S)NNC(=O)c2ccc(NC(=O)C(C)C)cc2)cc1
9	0.72	2.2	i	-0.6	-0.5	-3	O=C(CCc1ccccc1)NN1C(=O)C2C3C=CC(C3)C2C1=O (centres undefined)
-8	0.78	-1.5	nt	0.6	3.6	0	Cc1cc(C)n(C(=O)c2ccc(S(=O)(=O)N3CCCC3)cc2)n1
1	0.66	nt	i	-4.9	0.0	nt	CC1CN(C(NC(=O)c2ccccc2)C(Cl)(Cl)Cl)CC(C)O1 (centres undefined)
2	0.71	-5.9	nt	0.1	10	-8	CCOC(=O)N=Nc1c(O)n(CC(=O)OC)c2ccccc12
13	0.68	-4.0	i	-0.2	-1.2	3	CCOC(=O)c1c(C)n(C)c2ccc(O)c(S(=O)(=O)c3ccccc3)c12
4	nt	6.2	i	-0.7	nt	50	COc1cc(CNn2c(C)n[nH]c2=S)cc(Cl)c1OCC(=O)NC(C)(C)C
-13	0.71	-1.9	nt	-0.6	1.4	-2	O=C(Nc1cccc(NC(=O)c2cccnc2Cl)c1)c1ccco1
2	0.71	nt	i	-1.6	-0.9	nt	CS(=O)(=O)c1cccc(C(=O)Nc2cccc(S(=O)(=O)N3CCCC3)c2)c1
-1	nt	-1.6	i	-4.6	nt	-4	O=C(N/N=C/c1c(Cl)cccc1Cl)C(=O)NC1CC1
-3	0.75	4.5	i	1.5	3.2	nt	CCOC(=O)N1CCC(N2C(=O)c3ccccc3C2Nc2ccccc2)CC1 (centres undefined)
-3	0.74	1.4	nt	-3.0	-54	22	CC(C)CC(=O)NC(=S)NNC(=O)c1ccc(NC(=O)C2CCCCC2)cc1
8	0.71	4.5	nt	0.4	4.8	-15	CC(NC(=O)c1ccc(CS(=O)(=O)Cc2ccccc2F)o1)c1ccc2c(c1)OCCO2 (centres undefined)
-6	nt	-3.2	nt	-3.0	1.1	7	N#CC1=C(N)OC2=C(CN(Cc3ccccc3)C/C2=C\c2cccnc2)C1c1cccnc1 (centres undefined)
-7	0.7	5.2	nt	1.1	-35	-2	COc1cccc2c1cc1c(=O)n(CC(=O)NC3CCCCC3)nc(C)n12
18	0.65	-1.4	i	1.4	-0.5	-1	Cc1cc(OCCn2ccnc2)cc(C(C)C)c1

# Carrying on:
Beta2AR agonist	Ecoli growth	LANA-H2B inh	FGF22 binding	HNF4A DNA FP	UCH37 inh	ALR inh	structure
7	0.71	-4.6	nt	-1.6	0.8	-8	O=C(Cn1c(C(F)(F)F)nc2ccccc21)Oc1cccc(C(F)(F)F)c1
-2	0.64	1.6	i	1.3	0.0	2	COc1ccccc1N(CC(=O)N1CCCC1)S(=O)(=O)c1cc([N+](=O)[O-])ccc1Cl
1	0.71	-2.6	nt	2.4	0.5	-8	CCOC(=O)C1CCN(C(=O)C23CC4CC(CC(C4)C2)C3)CC1
-1	0.7	-1.2	i	-0.5	0.4	16	CC(=O)c1cccc(NC(=O)C2CCN(C(=O)c3ccccc3Cl)CC2)c1
0	0.65	-5.8	i	5.1	2.9	nt	CCOc1ccc(NC2=CC(=O)CCC2)cc1
0	0.69	-12	i	0.9	3.9	nt	Cc1cccnc1NC(=O)CNC(=O)C1CCCCC1
-2	0.71	-6.9	nt	1.0	28*	-11	Cc1nn(C(=O)CN2C(=O)c3ccccc3C2=O)c(C)c1Br
3	0.65	-0.1	nt	-1.9	0.7	nt	COc1ccc(NC(=O)N2CCN(CCC#N)CC2)cc1
-11	0.65	-0.4	nt	-2.4	4.3	-24	CC1CCN(Cc2nnnn2-c2ccc(Cl)cc2)CC1
10	0.68	7.6	nt	4.5	3.7	nt	COC(=O)c1cc(NC(=O)c2cc(C)oc2C)cc(C(=O)OC)c1
-12	nt	nt	i	-2.4	nt	nt	O=C1/C(=C\c2ccccc2)CCC/C1=C/c1ccccc1
-12	0.62	-1.3	i	-1.3	-7.9	-2	Nc1nccc(-c2cc(-c3ccc(Cl)cc3Cl)no2)n1
-3	0.66	0.3	i	2.2	13	-1	COCCn1c(C)cc(/C=C(\C#N)C(=O)OCC(=O)N(C)c2c(N)n(Cc3ccccc3)c(=O)[nH]c2=O)c1C
0	nt	0.5	i	4.3	nt	11	Nc1ccccc1SC1CC(=O)N(c2ccccc2Cl)C1=O (centres undefined)
-7	0.67	3.0	i	-0.3	8.4	-4	CC(C)n1c(O)c(N=NC(=O)Cc2csc(N3CCOCC3)n2)c2ccccc21
1	0.67	2.7	i	1.3	0.8	1	Cc1cccc(-n2nc3c(c2NC(=O)c2ccc4c(c2)OCO4)CS(=O)(=O)C3)c1C
-2	0.69	-4.8	nt	0.1	3.2	0	O=C(O)[C@H]1CCCC[C@H]1C(=O)NCCNC(=O)[C@@H]1CCCC[C@@H]1C(=O)O
-1	0.75	0.3	nt	0.0	3.5	-1	O=C(NS(=O)(=O)c1ccccc1)c1ccccc1O
3	0.7	4.5	nt	3.5	1.3	-4	CC1(c2ccccc2)NC(=O)N(CC(=O)N2CCOCC2)C1=O (centres undefined)
-3	0.7	-5.1	i	4.5	5.0	nt	COCC1CCN(Cc2cn[nH]c2-c2ccc(OC)c(F)c2)C1 (centres undefined)
-10	nt	0.2	i	-0.7	nt	-3	CCC/C(=N\NC(=O)Cc1csc(N2CCOCC2)n1)c1ccccc1

# Profiles, quoted from the list.
# COC(=O)c1cc(NC(=O)c2cc(C)oc2C)cc(C(=O)OC)c1 reads Beta2AR agonist = 10; Ecoli growth = 0.68; LANA-H2B inh = 7.6; FGF22 binding = nt; HNF4A DNA FP = 4.5; UCH37 inh = 3.7; ALR inh = nt
# O=C(Cn1c(C(F)(F)F)nc2ccccc21)Oc1cccc(C(F)(F)F)c1 reads Beta2AR agonist = 7; Ecoli growth = 0.71; LANA-H2B inh = -4.6; FGF22 binding = nt; HNF4A DNA FP = -1.6; UCH37 inh = 0.8; ALR inh = -8
